Compound activity from PubChem.
DUX4 inh: blocks DUX4-driven transcriptional activation. 293T-iDUX4 ZSCAN4-Gaussia luciferase reporter, 24 h; stronger effect = lower value. actives 0.8% (n = 37,000). AID 1224904. activity change, negative = inhibition, % (concentration not given with the values);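 active = -10% or lower and over 25 points stronger than a control reporter; inconclusive = -10% or lower with a smaller gap; inactive = above -10%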;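 note: 0% = median of neutral control wells and -100% = median of positive control wells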
DUX4 inh difference: further read-out of DUX4 inh, marked with its call; Gaussia minus Italica difference, %; measured here: selective DUX4 reporter inhibition;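 worked out from the two reporters; negative = selective loss of the DUX4 reporter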
DUX4 inh control: recorded beside DUX4 inh, whose call it bears; activity change, negative = inhibition, %; measured here: Italica tet-on control reporter;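 0 = neutral control and -100 = positive control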
* = called active by the depositor; ! = repeats disagree.

For O=C(Nc1cccc(F)c1)N1CC(=O)N2[C@H](C1)[C@H](c1ccc(C#CC3CC3)cc1)[C@@H]2CO the results were DUX4 inh 11, DUX4 inh difference 8 and DUX4 inh control 3.0.
Screening O=C(Nc1ccccc1F)N1CCCCN2[C@H](C1)[C@@H](c1ccc(C3=CCCC3)cc1)[C@@H]2CO returned DUX4 inh 12, DUX4 inh difference 2 and DUX4 inh control 10.
Screening COc1cccc(NC(=O)N2C[C@@H](O)COC[C@@H]3O[C@@H](CC(=O)NC4Cc5ccccc5C4)CC[C@H]32)c1 returned DUX4 inh 1, DUX4 inh difference 5 and DUX4 inh control -4.2.
`CO[C@@H]1CN(C)C(=O)c2cc(NS(=O)(=O)c3cccc(Cl)c3)ccc2OC[C@H](C)NC[C@H]1C` gave DUX4 inh 10, DUX4 inh difference 14 and DUX4 inh control -4.0.
O=C(C[C@H]1CC[C@@H]2NC[C@@H](O)COC[C@H]2O1)Nc1ccc(-c2ccccc2)cc1 was read as DUX4 inh -2, DUX4 inh difference 2 and DUX4 inh control -4.2.
Screening C[C@@H]1COCn2nncc2CC[C@H](Cc2cccc(Cl)c2)C(=O)N1 returned DUX4 inh -2, DUX4 inh difference -5 and DUX4 inh control 3.4.
For CCC(=O)N1[C@H](CO)[C@H](c2ccccc2-c2cccc(C)c2)[C@@H]1C#N the results were DUX4 inh 5, DUX4 inh difference -2 and DUX4 inh control 7.2.
Screening Cc1noc(C)c1NC(=O)N(C)C[C@H]1OCCCC[C@H](C)Oc2ccc(NC(=O)Nc3ccc(C(F)(F)F)cc3)cc2C(=O)N([C@H](C)CO)C[C@@H]1C returned DUX4 inh 2, DUX4 inh difference 1 and DUX4 inh control 0.7.
For Cc1nn(C)cc1NC(=O)C[C@H]1CC[C@H]2[C@H](COc3ccc(NC(=O)NC(C)C)cc3C(=O)N2C)O1 the results were DUX4 inh -1, DUX4 inh difference -3 and DUX4 inh control 1.7.
For CC(C)NC(=O)N(C)C[C@@H]1Oc2ncc(Br)cc2C(=O)N([C@H](C)CO)C[C@@H]1C the results were DUX4 inh -2, DUX4 inh difference -3 and DUX4 inh control 0.8.
Screening CNC[C@@H]1Oc2ccc(NC(=O)Nc3c(C)noc3C)cc2C(=O)N([C@H](C)CO)C[C@H]1C returned DUX4 inh 3, DUX4 inh difference -1 and DUX4 inh control 4.2.
For CO[C@H]1CN(C)C(=O)c2cc(NC(=O)c3cnccn3)ccc2OC[C@@H](C)NC[C@H]1C the results were DUX4 inh 1, DUX4 inh difference -8 and DUX4 inh control 8.3.
`CC(=O)N(C)C[C@@H]1Oc2cc(C#Cc3ccc(F)cc3)ccc2S(=O)(=O)N([C@@H](C)CO)C[C@H]1C` gave DUX4 inh -5, DUX4 inh difference -1 and DUX4 inh control -4.0.
`C/C=C/c1ccc2c(c1)[C@H]1[C@H](CCN1S(=O)(=O)c1ccccc1)[C@H](CO)N2` gave DUX4 inh 19, DUX4 inh difference -2 and DUX4 inh control 20.
`O=C(C[C@H]1CC[C@@H](NC(=O)Nc2ccccc2F)[C@H](CO)O1)NCc1ccc(Cl)cc1` gave DUX4 inh 4, DUX4 inh difference 11 and DUX4 inh control -6.6.

Reprinted from the part before: two compounds; new compounds follow.
`C/C=C/c1ccc2c(c1)[C@H]1[C@H](CCN1S(=O)(=O)c1ccccc1)[C@H](CO)N2` gave DUX4 inh 19, DUX4 inh difference -2 and DUX4 inh control 20.
`O=C(C[C@H]1CC[C@@H](NC(=O)Nc2ccccc2F)[C@H](CO)O1)NCc1ccc(Cl)cc1` gave DUX4 inh 4, DUX4 inh difference 11 and DUX4 inh control -6.6.
C[C@@H]1CN([C@@H](C)CO)C(=O)c2ccccc2-c2ccccc2CO[C@@H]1CN(C)S(=O)(=O)c1ccc(C(F)(F)F)cc1 was read as DUX4 inh inconclusive.
For CCCC#Cc1ccc([C@@H]2[C@@H](CO)N3C(=O)CN(S(=O)(=O)Cc4ccccc4)C[C@@H]23)cc1 the results were DUX4 inh inconclusive.
N#C[C@H]1N[C@@H](CO)[C@H]1c1ccc(C2=CCCC2)cc1 was read as DUX4 inh -5, DUX4 inh difference -2 and DUX4 inh control -2.9.
Screening CCC(=O)N1CCCCN2[C@H](CO)[C@@H](c3ccc(-c4ccc(F)cc4)cc3)[C@@H]2C1 returned DUX4 inh -4, DUX4 inh difference -15 and DUX4 inh control 11.
N#C[C@@H]1[C@@H](c2ccccc2)[C@H](CO)N1C(=O)c1ccccc1F was read as DUX4 inh -2, DUX4 inh difference 0 and DUX4 inh control -1.7.
O=C(N[C@H]1CC[C@@H](CCn2cc(C3CC3)nn2)O[C@@H]1CO)c1cccnc1 was read as DUX4 inh 7, DUX4 inh difference 4 and DUX4 inh control 2.7.
Screening COc1ccc(NC(=O)N2CC[C@@H]3[C@H]2c2cc(-c4cccc(C(=O)N(C)C)c4)ccc2N(C)[C@H]3CO)cc1 returned DUX4 inh -10, DUX4 inh difference 18 and DUX4 inh control -28.
Screening C[C@H]1CCCCO[C@H](CN(C)S(=O)(=O)c2cn(C)cn2)[C@@H](C)CN([C@@H](C)CO)C(=O)c2cc(NS(=O)(=O)c3cccs3)ccc2O1 returned DUX4 inh 1, DUX4 inh difference -3 and DUX4 inh control 3.3.
For C/C=C/c1cnc2c(c1)C(=O)N([C@@H](C)CO)C[C@@H](C)[C@H](CN(C)Cc1ccncc1)O2 the results were DUX4 inh 4, DUX4 inh difference 2 and DUX4 inh control 2.0.
CN(C)C(=O)c1cccc(-c2ccc([C@H]3[C@H]4CN(C(=O)C5CCC5)CC(=O)N4[C@H]3CO)cc2)c1 was read as DUX4 inh 2, DUX4 inh difference -27 and DUX4 inh control 29.
N#C[C@H]1[C@@H](c2ccc(-c3ccncc3)cc2)[C@@H](CO)N1C(=O)Cc1ccccc1 was read as DUX4 inh 3, DUX4 inh difference 1 and DUX4 inh control 1.8.
For O=C(C[C@@H]1CC[C@H]2[C@@H](COC[C@H](O)CN2Cc2ccc(Oc3ccccc3)cc2)O1)N1CCCCC1 the results were DUX4 inh inconclusive.
Screening COc1ccc2c3c([nH]c2c1)[C@H](CO)N(C)CC31CCN(C(=O)c2ccccc2F)CC1 returned DUX4 inh inconclusive.
`CN1CCN(C(=O)C[C@H]2CC[C@H]3[C@@H](COC[C@@H](O)CN3C(=O)Nc3ccc4c(c3)OCO4)O2)CC1` gave DUX4 inh 3, DUX4 inh difference 0 and DUX4 inh control 3.2.
COCC(=O)N1[C@H](CO)[C@@H](c2ccc(-c3cccc(OC)c3)cc2)C12CN(C(C)=O)C2 was read as DUX4 inh 3, DUX4 inh difference 0 and DUX4 inh control 3.3.
Screening O=C(Cc1ccccc1)N1C[C@@H]2[C@H](c3ccccc31)[C@H](CO)N2C(=O)c1cccc(F)c1 returned DUX4 inh -5, DUX4 inh difference -7 and DUX4 inh control 1.8.
`C[C@H](NC(=O)N(C)C[C@@H]1OCc2ccccc2-c2ccccc2C(=O)N([C@@H](C)CO)C[C@H]1C)c1ccccc1` gave DUX4 inh 10, DUX4 inh difference 0 and DUX4 inh control 10.0.
Screening CN(C)CCCNC(=O)C[C@@H]1CC[C@@H]2[C@H](COC[C@H](O)CN2S(=O)(=O)c2ccc(Cl)cc2)O1 returned DUX4 inh 11, DUX4 inh difference 7 and DUX4 inh control 4.0.
`O=C(CN1CCOCC1)N1CCCCN2[C@H](C1)[C@H](c1ccc(-c3ccccc3F)cc1)[C@@H]2CO` gave DUX4 inh 2, DUX4 inh difference -6 and DUX4 inh control 7.9.
For C[C@@H]1CN([C@H](C)CO)C(=O)c2cc(N(C)C)ccc2O[C@@H]1CN(C)Cc1ccc(Oc2ccccc2)cc1 the results were DUX4 inh 1, DUX4 inh difference -1 and DUX4 inh control 2.0.
`C[C@H](CO)N1C[C@H](C)[C@H](CN(C)S(=O)(=O)c2ccc(F)cc2)Oc2ccc(NC(=O)CCC(F)(F)F)cc2C1=O` gave DUX4 inh -2, DUX4 inh difference -4 and DUX4 inh control 1.2.
C[C@@H]1CCCCO[C@@H](CN(C)S(=O)(=O)c2ccc(Cl)cc2)[C@@H](C)CN([C@@H](C)CO)C(=O)c2cc(NC(=O)CCCN(C)C)ccc2O1 was read as DUX4 inh 0, DUX4 inh difference 2 and DUX4 inh control -1.8.
CC=Cc1ccc2n(c1=O)C[C@@H]1[C@@H](CO)[C@H](C(=O)N(C)C)[C@H]2N1CCc1ccccc1 (mixture of isomers) was read as DUX4 inh -4, DUX4 inh difference -1 and DUX4 inh control -3.1.
For CC(C)NC(=O)N1[C@H](CO)[C@H](c2ccc(C#CC3CCCCC3)cc2)[C@@H]1C#N the results were DUX4 inh 6, DUX4 inh difference 2 and DUX4 inh control 3.9.
`COc1cccc(C#Cc2ccc([C@@H]3[C@@H](C#N)N(C(=O)C4CCC4)[C@H]3CO)cc2)c1` gave DUX4 inh 1, DUX4 inh difference 3 and DUX4 inh control -1.9.
`CN(C)C(=O)[C@@H]1[C@@H](CO)[C@@H]2Cn3c(ccc(-c4ccccc4F)c3=O)[C@H]1N2C` gave DUX4 inh -2, DUX4 inh difference 2 and DUX4 inh control -3.5.
COC(=O)C[C@H]1CC[C@H]2[C@@H](COC[C@H](O)CN2S(=O)(=O)c2ccccc2C)O1 was read as DUX4 inh 18, DUX4 inh difference 11 and DUX4 inh control 7.2.
For O=C(Cc1ccncc1)N1C[C@@H]2N[C@H](C1)C2c1ccc(/C=C/c2ccccc2)cc1 (stereo not given in full) the results were DUX4 inh -28*!, DUX4 inh difference -26*! and DUX4 inh control -2.5*!.
Screening CCCNC(=O)N1[C@H](CO)[C@@H]2c3ccccc3N(C(=O)c3ccc(F)cc3)C[C@@H]21 returned DUX4 inh 1, DUX4 inh difference 0 and DUX4 inh control 0.8.
`Cc1ccccc1S(=O)(=O)N1C[C@@H](O)COC[C@H]2O[C@@H](CC(=O)N3CCOCC3)CC[C@@H]21` gave DUX4 inh 13, DUX4 inh difference 3 and DUX4 inh control 9.9.
For CO[C@H]1CN(C)C(=O)c2cc(NC(=O)c3ccno3)ccc2OC[C@@H](C)NC[C@H]1C the results were DUX4 inh 3, DUX4 inh difference -7 and DUX4 inh control 10.
CCC(=O)N1C[C@H]2[C@@H](c3ccccc31)[C@H](CO)N2Cc1ccccc1Cl was read as DUX4 inh 0, DUX4 inh difference -7 and DUX4 inh control 6.5.
`COc1ccc2c3c([nH]c2c1)[C@H](CO)N(CC1CC1)CC31CN(C(=O)c2ccc(F)cc2)C1` gave DUX4 inh inconclusive.
COCC(=O)N(C)C[C@@H]1Oc2cc(-c3ccc(OC)cc3)ccc2S(=O)(=O)N([C@H](C)CO)C[C@H]1C was read as DUX4 inh 4, DUX4 inh difference -2 and DUX4 inh control 6.2.
`CCC(=O)Nc1ccc2c(c1)OC[C@H](C)N(Cc1ccccc1F)C[C@H](C)[C@@H](OC)CN(C)C2=O` gave DUX4 inh -6, DUX4 inh difference -10 and DUX4 inh control 3.5.
`CO[C@@H]1CN(C)C(=O)c2cc(NC(=O)CC(F)(F)F)ccc2OC[C@@H](C)N(S(=O)(=O)c2cn(C)cn2)C[C@H]1C` gave DUX4 inh 3, DUX4 inh difference 0 and DUX4 inh control 3.5.
Screening C[C@H](CO)N1C[C@H](C)[C@H](CN(C)C(=O)N[C@H](C)c2ccccc2)OCc2ccccc2-c2ccccc2C1=O returned DUX4 inh -8, DUX4 inh difference -10 and DUX4 inh control 2.1.
For COc1cccc(-c2ccc3c(c2)O[C@@H](CN(C)C(=O)C2CCOCC2)[C@@H](C)CN([C@H](C)CO)S3(=O)=O)c1 the results were DUX4 inh -2, DUX4 inh difference -6 and DUX4 inh control 4.4.
For O=C(CN1CCOCC1)N[C@H]1CC[C@@H](CCNS(=O)(=O)c2ccccc2F)O[C@@H]1CO the results were DUX4 inh -2, DUX4 inh difference 1 and DUX4 inh control -3.0.
`N#C[C@@H]1[C@H](c2ccccc2)[C@H](CO)N1S(=O)(=O)c1ccc(F)cc1` gave DUX4 inh -2, DUX4 inh difference -1 and DUX4 inh control -1.1.
`O=S(=O)(Cc1ccccc1)N1[C@H](CO)[C@@H](c2ccccc2)C12CN(CCC(F)(F)F)C2` gave DUX4 inh inconclusive.

Structural class, the entries above with a cyano group.
For CCC(=O)N1[C@H](CO)[C@H](c2ccccc2-c2cccc(C)c2)[C@@H]1C#N the results were DUX4 inh 5, DUX4 inh difference -2 and DUX4 inh control 7.2.
N#C[C@H]1N[C@@H](CO)[C@H]1c1ccc(C2=CCCC2)cc1 was read as DUX4 inh -5, DUX4 inh difference -2 and DUX4 inh control -2.9.
N#C[C@@H]1[C@@H](c2ccccc2)[C@H](CO)N1C(=O)c1ccccc1F was read as DUX4 inh -2, DUX4 inh difference 0 and DUX4 inh control -1.7.
N#C[C@H]1[C@@H](c2ccc(-c3ccncc3)cc2)[C@@H](CO)N1C(=O)Cc1ccccc1 was read as DUX4 inh 3, DUX4 inh difference 1 and DUX4 inh control 1.8.
For CC(C)NC(=O)N1[C@H](CO)[C@H](c2ccc(C#CC3CCCCC3)cc2)[C@@H]1C#N the results were DUX4 inh 6, DUX4 inh difference 2 and DUX4 inh control 3.9.
`COc1cccc(C#Cc2ccc([C@@H]3[C@@H](C#N)N(C(=O)C4CCC4)[C@H]3CO)cc2)c1` gave DUX4 inh 1, DUX4 inh difference 3 and DUX4 inh control -1.9.
`N#C[C@@H]1[C@H](c2ccccc2)[C@H](CO)N1S(=O)(=O)c1ccc(F)cc1` gave DUX4 inh -2, DUX4 inh difference -1 and DUX4 inh control -1.1.

The list is partial; count on the stated rates, not on these rows.
